Pol iota inh = inhibitors of human DNA polymerase iota. Q9UNA4. Pol iota fluorescent replication assay, 10 min. Potency, µM (series often up to 115 µM), for inactives: at the top dose activity, negative = inhibition, usual class: inhibitors. 1% of 390,000 active. AID 588590
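Pol iota at 10 nM preincubated 15 min with compounds at room temperature; reaction started with fluorescent substrate, 50 nM final. Fluorescence read kinetically at 0 and 10 min; buffer-only wells as negative control.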
PGK inhibitor = blocks T. brucei phosphoglycerate kinase. 0.043% of 380,000 active. PGK/GAPDH coupled, Kinase-Glo luminescence, 60 min. Potency, µM (series often up to 57.5 µM), without a hit: top-dose activity change, negative = inhibition, usual class: inhibitors. P07378; further: on the % scale 0 is the no-effect control and ±100 the full control effect; nearly all actives have a fitted effect of over 60% in size
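Luminescent ATP detection (Kinase-Glo Plus) follows a 60-minute room-temperature incubation, with wells lacking PGK as controls. Buffer: 100 mM TEA (pH 7.6), 5 mM MgCl2, 0.01% Tween-20. Coupling enzyme GAPDH (100 nM final) supplies unstable 1,3-BPG in-well.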
GLS inh = blocks human kidney-isoform glutaminase activity | GLS enzymatic activity, qHTS titration | Potency, µM (titrated, usually from 45.5 µM), for the others: top-dose activity change, negative = inhibition, most hits filed as inhibitors | 0.21% of 410,000 active; further: on the % scale 0 is the no-effect control and ±100 the full control effect
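Two-point fluorescence kinetic (t0, 30 min RT) for hKGA; glutamate detected via glutamate oxidase–HRP–Amplex Red. Substrate: 1 mM L-glutamine solution; buffer 45 mM KH2PO4, pH 8.2.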
BLM helicase inh = blocks DNA unwinding by human BLM helicase; P54132; recombinant BLM DNA unwinding, fluorescence dequenching; Potency, µM (series often up to 56.1 µM), without a hit: top-dose activity change, negative = inhibition, most hits filed as inhibitors; 0.2% of 350,000 active; AID 2528;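 further: plate controls were vehicle for no effect and no enzyme for full effect; nearly all actives have a fitted effect of over 35% in size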
Target sequence (P54132 whole entry, looked up): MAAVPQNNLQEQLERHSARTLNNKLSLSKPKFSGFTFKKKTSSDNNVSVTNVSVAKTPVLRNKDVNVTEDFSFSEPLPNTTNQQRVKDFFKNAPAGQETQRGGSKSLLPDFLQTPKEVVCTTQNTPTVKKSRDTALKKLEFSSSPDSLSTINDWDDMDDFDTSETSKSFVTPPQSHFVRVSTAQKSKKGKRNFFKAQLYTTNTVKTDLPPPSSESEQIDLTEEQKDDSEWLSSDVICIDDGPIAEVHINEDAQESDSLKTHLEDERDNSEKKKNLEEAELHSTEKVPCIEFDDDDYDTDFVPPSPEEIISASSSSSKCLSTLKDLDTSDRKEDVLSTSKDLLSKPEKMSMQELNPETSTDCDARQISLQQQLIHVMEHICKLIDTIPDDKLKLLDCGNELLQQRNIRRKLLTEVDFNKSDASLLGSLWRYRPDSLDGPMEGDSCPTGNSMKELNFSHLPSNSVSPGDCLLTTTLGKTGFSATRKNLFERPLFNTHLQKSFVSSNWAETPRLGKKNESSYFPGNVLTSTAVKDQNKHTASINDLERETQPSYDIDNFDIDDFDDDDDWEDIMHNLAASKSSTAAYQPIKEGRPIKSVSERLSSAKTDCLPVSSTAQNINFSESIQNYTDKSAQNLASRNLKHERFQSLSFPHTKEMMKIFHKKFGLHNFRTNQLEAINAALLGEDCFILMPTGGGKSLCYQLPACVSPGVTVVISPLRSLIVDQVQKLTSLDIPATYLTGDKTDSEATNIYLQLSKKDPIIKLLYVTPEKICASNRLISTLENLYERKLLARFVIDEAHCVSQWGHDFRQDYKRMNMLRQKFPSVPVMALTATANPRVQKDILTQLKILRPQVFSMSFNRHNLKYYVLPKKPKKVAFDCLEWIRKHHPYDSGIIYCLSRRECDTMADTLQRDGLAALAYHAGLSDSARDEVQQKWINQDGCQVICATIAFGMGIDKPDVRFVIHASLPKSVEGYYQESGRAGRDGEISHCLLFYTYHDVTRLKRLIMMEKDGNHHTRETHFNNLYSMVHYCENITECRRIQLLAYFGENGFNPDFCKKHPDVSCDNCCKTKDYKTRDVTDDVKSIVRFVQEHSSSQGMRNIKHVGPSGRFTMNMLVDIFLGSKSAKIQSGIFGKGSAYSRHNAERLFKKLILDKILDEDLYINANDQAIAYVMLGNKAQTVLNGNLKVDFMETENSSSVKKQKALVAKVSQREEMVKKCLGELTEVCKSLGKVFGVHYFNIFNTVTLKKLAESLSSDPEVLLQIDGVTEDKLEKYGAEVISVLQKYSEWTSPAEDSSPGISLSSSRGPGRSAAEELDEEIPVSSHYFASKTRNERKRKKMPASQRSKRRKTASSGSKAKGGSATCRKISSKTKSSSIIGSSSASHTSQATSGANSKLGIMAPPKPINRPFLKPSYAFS
Pin1 inhibitor = human Pin1 inhibition; Q13526; Pin1 FP peptide displacement, HiFluor488, 10 min; Potency, µM (doses to about 115 µM), inactives show at the highest dose activity, negative = inhibition, usual class: inhibitors; 0.009% of 390,000 active; active means well fitted inhibition curve with a large enough effect in the polarisation, with a control signal flat, not every such curve was filed as active; inconclusive means small, poorly fitted or top-dose-only effect, or effect the other way, or a change in a side signal; inactive means no such curve, though single readings can be large or run the other way; the % refers to the polarisation; further: on the % scale 0 is the no-effect control and ±100 the full control effect
An asterisk follows results filed as active; i = inactive; u = inconclusive; x = no result given; & = joins results of further samples; [ ] = another dose, or the depositor's remark. Unless noted, the call rests on the fitted dose curve; in most records, active means well fitted curve in the direction sought with a large enough effect; inconclusive means small, poorly fitted or top-dose-only effect, or another doubt; inactive means no such curve, though single readings can be large; an effect the other way counts as inactive or inconclusive. Potency means the concentration at half of the fitted maximal effect.

BLM helicase inh | PGK inhibitor | GLS inh | Pin1 inhibitor | Pol iota inh | molecule
-0.9% | -2.3%[11.5 µM] | 0.7% | 6.7% | -3.6% | CCSc1nnc(NC(=O)CSc2nc3c(cc2C#N)CCCC3)s1
-10.6%&-2.6% | 3.4%&-4.7% | 3.9%&4.4%&2.3% | -13.0%&-2.4% | u | CC(C)(C)NC(=O)[C@@H]1C[C@@H]2CCCC[C@@H]2CN1C[C@@H](O)[C@H](Cc1ccccc1)NC(=O)[C@H](CC(N)=O)NC(=O)c1ccc2ccccc2n1
-0.4% | -1.6% | -11.9% | -0.2% | u | CC(C)OC(=O)CSc1nnc(-c2ccc(C(C)(C)C)cc2)n1N
-11.2% | -1.7% | 9.0% | 21.3% | 17.3% | Cc1ccc(C)c(S(=O)(=O)N2CCN(C(C)C(=O)Nc3ccccc3-c3ccccc3)CC2)c1 (stereo unspecified)
1.1% | 5.5% | -1.0% | 0.0% | 25.3% | COC(=O)C1=NN(c2ccccc2)C2C(=O)N(c3ccccc3OC)C(=O)C12 (stereo unspecified)
0.2% | i | 4.6% | 2.4% | 31.4%[activator] | Cc1ccc(Nc2sc(C(=O)c3ccccc3)c(N)c2C(N)=O)cc1
0.2% | -3.0% | -0.5% | -3.4% | 153.1%[activator] | CCOC(=O)c1sc(=S)n(C)c1NC(=O)c1ccc(OC)cc1
-12.9% | 6.1% | 0.0% | 13.8% | 33.7%[activator] | Cc1ccc2nc(-c3ccc(NS(=O)(=O)c4ccc(F)cc4)cc3)sc2c1
-2.5% | -1.4% | -10.0% | -1.2% | -8.7% | COc1cc2ccccc2cc1C(=O)N(CCN(C)C)c1nc2ccc(C)cc2s1
-5.5% | -6.8% | -8.6% | 7.3% | 20.7% | CCc1nn2c(=O)cc(COC(=O)c3cccc(NC(=O)c4ccccc4C)c3)nc2s1
0.1% | 0.5% | u | u | 22.4µM* | Cc1cc(C(F)(F)F)nc(SCc2ccc(C(=O)O)o2)n1
-2.7% | 1.3% | -3.2% | 2.1% | 19.5% | OC1(c2ccccc2)CCN(Cc2ccccc2)CC1
-4.3% | -8.6% | 1.2% | -2.7% | 24.9% | Cc1c(N=Cc2cc3c(cc2Cl)OCO3)c(=O)n(-c2ccccc2)n1C
-6.9% | -0.7% | -0.7% | 1.3% | 2.1% | Clc1ccccc1-c1nc(-c2ccccc2)n[nH]1
-4.3% | -6.8% | 5.8% | u | -4.7%[58.9 µM] | Cc1c(N=Cc2c(O)n(C)c(=O)c3ccccc23)c(=O)n(-c2ccccc2)n1C
-4.9% | -5.4% | -11.8% | 2.0% | 87.6%[activator] | Cc1ccc(-c2c(NCCc3ccccc3)c(=O)c2=O)cc1
-4.2% | -0.7% | -1.8% | 4.0% | -17.5% | Nc1ccc(C(=O)Oc2ccc([N+](=O)[O-])cc2)cc1
0.6%&1.4% | 7.0% | -1.7%&4.2% | 3.7%&-8.1% | -14.0%&11.3% | O=C(Cn1cnc(S(=O)(=O)N2CCCC2)c1)Nc1ccccc1
3.5% | -4.0% | -0.9% | u | 0.5% | COc1ccc(NC(=O)COC(=O)c2c3c(nc4ccccc24)CCCC3)cc1
-0.8% | -7.8% | 14.3% | -3.5% | u | Cc1ccc(C)c(N(CC(N)=O)S(C)(=O)=O)c1
-3.4% | -6.1% | 5.5% | -4.6% | 145.5%[activator] | Cc1nc(SCc2ccc(F)cc2)n[nH]1
-1.6%[21.4 µM] | x | -4.5%[20 µM] | x | x | CCCC(=O)Nc1ccc(OC[C@@H](O)CNC(C)C)c(C(C)=O)c1
1.6% | 7.4% | 30.0% | -6.0% | 16.8% | CC1(C)c2ssc(=S)c2-c2ccccc2N1C(=O)c1ccco1
1.6% | -15.1% | 1.6% | -8.1% | 6.5%[58.9 µM] | Cc1cc2ncc(-c3ncc(C(F)(F)F)cc3Cl)cn2n1
-8.1% | -0.1% | -2.4% | 4.0% | 110.2%[activator] | CN1CCN(CC(=O)Nc2ccc(OC(F)(F)F)cc2)CC1
-4.1% | -2.0% | 14.6% | 0.9% | -6.1% | Cc1cc2c(cc1S(=O)(=O)N1CCN(c3ccccc3)CC1)OCCN2C
x | 3.5% | 7.4% | 5.2% | 23.1% | Cc1ccc(NC(=O)CSCC(=O)OCc2cc(=O)oc3cc(O)ccc23)c(C)c1
-7.0% | 2.6% | 9.9% | 41.8%[activator] | 17.5% | C[C@@H]1CC=C[C@H]2[C@H]1C(=O)N(Cc1ccccc1)[C@H]2c1ccc(F)c(-c2ccc(N(C)C)cc2)c1
-4.0% | -1.5% | 8.5% | 1.3% | 0.7% | Cc1cccc(C)c1Nc1sc(C(=O)c2ccccc2)c(N)c1S(=O)(=O)c1ccccc1
-4.7% | -1.1% | 4.4% | -2.2% | -0.1% | CS(=O)(=O)N(CC(=O)Nc1ccc(Br)cc1)c1ccccc1Br

Later entries:
BLM helicase inh | PGK inhibitor | GLS inh | Pin1 inhibitor | Pol iota inh | molecule
0.5% | x | -1.3% | 2.9% | 19.2% | CCc1ccc(C(=O)CSc2n[nH]c(-c3ccncc3)n2)cc1
-1.7% | -2.9% | 51.4%[activator] | -2.7% | -4.0% | CC(=O)c1ccc(NC(=O)Cn2cnc(S(=O)(=O)N3CCC(C)CC3)c2)cc1
1.8% | 11.0% | 15.6% | 2.5% | 2.6% | COc1ccc(C(=O)Oc2cc3c4c(c2)C(C)=CC(C)(C)N4C(=O)C3=O)cc1OC
-3.8% | -11.4% | -1.2% | 1.1% | 29.9% | COc1cccc(CNCc2ccc(OC)cc2OC)c1
-1.7% | i | -8.6% | 1.0% | 29.9% | CC(NC(=O)C(C)N1CCN(Cc2ccccc2)CC1)c1ccccc1 (stereo unspecified)
-0.5% | -8.4% | -8.5% | u | 22.4% | Cc1ccc(NC(=O)c2c3c(nc4ccccc24)CCC3)cc1
-12.4% | i | -1.9% | 44.5%[activator] | -9.8% | O=C(COC(=O)c1c2c(nc3ccccc13)CCCC2)c1ccc(Br)s1
-1.7% | i | 3.3% | 1.9% | 76.1%[activator] | COc1ccc(NC(=O)c2ccc(Br)c(S(=O)(=O)N3CCOCC3)c2)cc1
-9.5% | -9.0% | -7.2% | 16.1% | 9.8% | COc1ccc(-c2nnc(NC(=O)c3cccs3)s2)c(OC)c1
-2.5% | -0.6% | 16.4% | -16.4% | -12.7% | CCN1CCN(CC(=O)Nc2nc3ccc(OC)cc3s2)CC1
-2.7% | i | 6.9% | 0.2% | 64.1%[activator] | C/C(=N\NC(=O)c1ccccc1[N+](=O)[O-])c1c(O)cc(C)oc1=O
-0.7% | -10.0% | -6.2% | -6.9% | -6.9% | COc1ccc(Br)cc1CN1CCCC(C(=O)N2CCCCC2)C1 (stereo unspecified)
x | -1.4% | 3.2% | 4.5% | -11.1% | CCOC(=O)c1ccc(-n2cccc2/C=C2\NC(=O)NC2=O)cc1
-11.7% | 3.3% | 2.8% | 0.7% | u | COc1cccc2cc(-c3nc4ccccc4[nH]3)c(=O)oc12
-6.5% | -2.1% | 2.5% | -6.0% | -14.6% | Cn1c(-c2ccc3c(c2)OCO3)cnc1NCc1ccccc1Cl
-2.4% | -8.8% | 13.0% | -1.6% | -1.7% | CCOC(=O)/C(=N\O)C1=NC(C)(C)Cc2ccccc21
-6.5% | -9.2% | 0.8% | -11.9% | u | Cc1ccc([N+](=O)[O-])c(OCCN2CCNCC2)c1
1.1% | -6.7% | -3.5% | -0.6% | 1.7% | O=C(Nc1ccccc1)N1C(=O)C2(OCCO2)c2ccccc21
-2.3% | 0.3% | -12.2% | 1.8% | -20.2% | C=CCN(CC=C)CCOc1ccc(OC(C)C)cc1
-3.9% | -4.4% | -3.2% | -1.8% | 0.4% | O=C(C1CCCN(Cc2ccc(F)cc2)C1)N1CCCCC1 (stereo unspecified)
6.3% | -12.8% | x | 1.8% | 8.6% | Cc1cccc(C)c1NC(=O)CSc1nnc(-c2ccco2)n1N
-0.3% | x | 0.0% | -12.4% | 31.2%[activator] | O=C(c1ccccc1)N1CCN(C2CC3CCC2C3)CC1 (stereo unspecified)
-3.9% | -2.2% | -1.5% | -0.4% | 6.3% | Fc1cccc(Cc2noc(CN3CCOCC3)n2)c1
4.4% | 1.1% | 3.4% | 4.0% | 42.7%[activator] | COc1cc2c(cc1OC)-c1cc(N3CCCc4ccccc43)nc(=O)n1CC2
0.2% | 7.8% | 9.8% | -0.5% | u | CCC(C)(C)n1nnnc1C(c1ccc(O)c(OC)c1)N1CCc2ccccc2C1 (stereo unspecified)
-6.9% | -7.7% | -0.3% | 10.8% | 22.9% | C=CCNC(=O)NC(=O)CSc1nnc(C(F)(F)F)n1C
-2.3% | i | 1.8% | 4.4% | 3.9% | O=C(Nc1nnc(COc2ccc(F)cc2)s1)c1ccco1
-3.3% | x | -0.8% | u | -8.8% | CCOC(=O)c1sc(NC(=O)CSc2ncccn2)c(C#N)c1C
-10.0% | -0.5% | 4.4% | 4.7% | 2.6% | COc1ccc(C(=O)N(c2ccc(OC)cc2)S(=O)(=O)c2cccs2)cc1
1.9% | 5.4% | 4.3% | 4.6% | 99.6%[activator] | CCOC(=O)c1[nH]cnc1C(=O)Nc1ccccc1

Going on with the list:
BLM helicase inh | PGK inhibitor | GLS inh | Pin1 inhibitor | Pol iota inh | molecule
-2.1% | -4.7% | 5.5% | -0.9% | u | O=C(O)C1CCC(NSc2ccccc2[N+](=O)[O-])CC1 (stereo unspecified)
-8.6% | i | -12.3% | -0.3% | 79.3%[activator] | O=[N+]([O-])c1cccc2nc(-c3ccccc3)c(-c3ccccc3)nc12
3.1% | -2.2% | 12.8% | -2.3% | -14.8% | Cc1ccc(S(=O)(=O)NNc2nnc(C)c(=O)[nH]2)cc1
-1.0% | -8.1% | -4.0% | -1.3% | 0.6% | O=C(OCc1cc(=O)n2nc(C3CC3)sc2n1)c1ccccc1Cl
-13.6% | -5.7% | 1.8% | 1.3% | 3.7% | NC(=O)C(c1ccc(Cl)cc1)c1ccc(Sc2ccccc2)nn1 (stereo unspecified)
-3.4% | x | x | x | x | Cc1ccc(CNC(=O)[C@H](C)[C@@H]2C[C@@]2(C)[C@@H](NC(=O)OCc2ccccc2)c2ccccc2)o1
-3.3% | 1.4% | -0.7% | -3.2% | 20.2% | COc1ccc(CN2CCN(S(=O)(=O)c3ccc(NC(C)=O)cc3)CC2)cc1
-2.2% | -7.2% | 4.0% | -11.8% | u | COc1cccc(OC)c1OCCCCn1cnc2ccccc2c1=O
-3.2% | 7.3% | 0.7% | 4.7% | -26.7% | CCOC(=O)c1c(O)c2ccccc2oc1=O
-1.0% | 6.6% | -16.8% | 1.7% | 161.1%[activator] | O=C1C2CCCN2C(=S)N1c1ccccc1 (stereo unspecified)
-14.3% | -6.9% | 0.6% | 39.2%[activator] | -15.4%[58.9 µM] | O=C(N/N=C/c1ccc(OC(=O)c2cccs2)cc1)c1cccc(F)c1
-11.6% | i | 11.2% | -5.7% | 21.4% | NC(=O)CC(NC(=O)c1ccc(Br)cc1)c1ccc(N2CCCCCCC2)c([N+](=O)[O-])c1 (stereo unspecified)

Reformatted comma-delimited: six of the compounds above.
Molecule,BLM helicase inh,PGK inhibitor,GLS inh,Pin1 inhibitor,Pol iota inh
Cc1ccc(S(=O)(=O)NNc2nnc(C)c(=O)[nH]2)cc1,3.1%,-2.2%,12.8%,-2.3%,-14.8%
O=C(OCc1cc(=O)n2nc(C3CC3)sc2n1)c1ccccc1Cl,-1.0%,-8.1%,-4.0%,-1.3%,0.6%
NC(=O)C(c1ccc(Cl)cc1)c1ccc(Sc2ccccc2)nn1 (stereo unspecified),-13.6%,-5.7%,1.8%,1.3%,3.7%
Cc1ccc(CNC(=O)[C@H](C)[C@@H]2C[C@@]2(C)[C@@H](NC(=O)OCc2ccccc2)c2ccccc2)o1,-3.4%,x,x,x,x
COc1ccc(CN2CCN(S(=O)(=O)c3ccc(NC(C)=O)cc3)CC2)cc1,-3.3%,1.4%,-0.7%,-3.2%,20.2%
COc1cccc(OC)c1OCCCCn1cnc2ccccc2c1=O,-2.2%,-7.2%,4.0%,-11.8%,u

Source: PubChem (National Center for Advancing Translational Sciences (NCATS))

Only part of the results is shown; the hit share may differ from the screen's.
